PINK1 expr mod – A Quantitative High throughput Screen to Identify Chemical Modulators of PINK1 Expression; PINK1 immunofluorescence, high-content cytometry, 24 h; Potency, µM (series often up to 76.6 µM), for the others: at the top dose activation (PINK1 increase), most hits filed as activators; hit rate 0.2% among 410,000; AID 624263, 2012; active = well fitted activation curve with a large enough effect; inconclusive = small, poorly fitted or top-dose-only effect; inactive = flat fitted curve, though single readings scatter; cell line not stated here;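 further: potency means the concentration at half of the fitted maximal effect; % of control where 0% means no effect; nearly all actives have a fitted effect of over 65% in size; a mitochondrial uncoupler was the plate control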
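PINK1 protein level read as immunofluorescence by microplate cytometer in a fixed, stained stable cell line after 24 h exposure to five compound concentrations, with CCCP as control.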
TRPV1 PAM – HTS Assay for Compounds that Act as Potentiators of the Vanilloid Receptor 1 | Transient receptor potential cation channel subfamily V member 1 (Homo sapiens), Q8NER1 | TRPV1-expressing cells, Fluo-8 calcium influx, capsaicin EC20 potentiation; host cell line not named in the record; control for the full effect not named in the record | potentiation, % at 8.33 µM | hit rate 0.02% among 320,000; active means potentiation above 80%; inconclusive means 30% to 80%; inactive means below 30%; further: 0% is about no effect
Target sequence (Q8NER1 whole entry, looked up): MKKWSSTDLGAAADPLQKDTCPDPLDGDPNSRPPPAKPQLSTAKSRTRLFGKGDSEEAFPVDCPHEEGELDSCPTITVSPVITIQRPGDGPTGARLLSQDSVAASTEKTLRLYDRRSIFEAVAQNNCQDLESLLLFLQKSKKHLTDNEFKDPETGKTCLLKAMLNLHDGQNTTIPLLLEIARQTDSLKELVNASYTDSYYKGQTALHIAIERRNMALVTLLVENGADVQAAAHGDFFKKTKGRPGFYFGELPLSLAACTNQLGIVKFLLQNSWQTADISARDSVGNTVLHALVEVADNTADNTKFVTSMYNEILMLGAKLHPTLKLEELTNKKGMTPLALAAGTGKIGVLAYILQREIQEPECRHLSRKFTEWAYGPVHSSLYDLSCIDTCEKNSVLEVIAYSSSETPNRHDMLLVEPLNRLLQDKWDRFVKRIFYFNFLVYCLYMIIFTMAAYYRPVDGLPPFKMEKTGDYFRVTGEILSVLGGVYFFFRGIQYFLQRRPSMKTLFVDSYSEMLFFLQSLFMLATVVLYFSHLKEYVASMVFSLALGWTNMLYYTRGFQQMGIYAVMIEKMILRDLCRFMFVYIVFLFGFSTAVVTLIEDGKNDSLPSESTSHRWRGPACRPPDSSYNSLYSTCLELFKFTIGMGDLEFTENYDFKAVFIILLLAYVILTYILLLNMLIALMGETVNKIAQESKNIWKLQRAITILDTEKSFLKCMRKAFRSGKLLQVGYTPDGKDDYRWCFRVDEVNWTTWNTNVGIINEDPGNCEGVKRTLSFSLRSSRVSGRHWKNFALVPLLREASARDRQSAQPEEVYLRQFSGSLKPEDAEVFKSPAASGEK
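TRPV1-expressing cells were cultured overnight at 35.5C and loaded with Fluo-8 calcium dye for 40 to 90 min at room temperature. After a 10 s baseline, compound was added and calcium influx was read kinetically for 3 min (ex 480/em 520 nm).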
D2 potentiator – Beta-Arrestin HTS for Positive Allosteric Modulators of the Human D2 Dopamine Receptor: Potentiators | D(2) dopamine receptor (Homo sapiens), P14416 | DiscoveRx D2 beta-arrestin cells, luminescence, 90 min; 100% = 57 uM dopamine signal | potentiation, % (concentration not given with the values) | hit rate 0.23% among 360,000; active = potentiation of 50% or more; inconclusive = 30% to 50%; inactive = 30% or less;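 further: compound concentration not given in the record; tested on top of an EC20 dose of dopamine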
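PathHunter D2 cells, attached overnight at 37 deg C, received compound in DMSO plus dopamine at EC20 (50 nM final) for 90 min at 37 deg C. Beta-arrestin recruitment was read as luminescence after 1 h with detection reagent at ambient temperature.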
CtBP-E1A inh – qHTS Assay for Inhibitors of the CtBP/E1A Interaction | CtBP / adenovirus E1A interaction (AlphaScreen) | AlphaScreen GST-E1A/His-CtBP binding, 1536-well; active compounds read low; control for the full effect not named in the record | activity change, % (concentration not given with the values) | hit rate 0.49% among 340,000 | AID 651724, 2012; in the data active means activity change below about -65%; inconclusive means about -30% to -65%; inactive means above about -30%; further: on the % scale 0 is the no-effect control and ±100 the full control effect
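In 5 uL wells, 23 nL compound meets equimolar GST-E1A and His-CtBP (5X stock 125 nM each) for 2 h, 37 °C. Beads (5X, 50 ug/mL) then 1 h, 37 °C, dark.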
Sfp inh – qHTS Assay for Inhibitors of Bacillus subtilis Sfp phosphopantetheinyl transferase (PPTase); AID 1490, 2009; 4'-phosphopantetheinyl transferase ffp (Bacillus subtilis), Q9F4F7; hit rate 3.5% among 310,000; Biochemical Sfp PPTase activity, qHTS; Potency, µM, for inactives: max response, negative = inhibition, actives largely listed as inhibitors; active means well fitted inhibition curve with a large enough effect; inconclusive means small, poorly fitted or top-dose-only effect, or another doubt; inactive means no such curve, though single readings can be large or run the other way;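 further: the enzyme is Sfp with the accession as filed and its product quenches rhodamine fluorescence; potency means the concentration at half of the fitted maximal effect; 0% = enzyme reaction without inhibitor and -100% = no enzyme wells; top concentration of the series not given in the record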
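After 15 min at room temperature with compound, 15 nM Sfp received 5 uM rhodamine-CoA plus 12.5 uM BHQ-2-ybbR (50 mM Hepes pH 7.6, 10 mM MgCl2). Rate came from the fluorescence difference over 30 min, ex 525/em 598 nm.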
D2 ag – Beta-Arrestin HTS for Positive Allosteric Modulators of the Human D2 Dopamine Receptor: Agonists; D(2) dopamine receptor (Homo sapiens), P14416; DiscoveRx PathHunter D2 beta-arrestin, luminescence, 90 min; 100% = 57 uM dopamine signal; activation, % (concentration not given with the values); hit rate 0.084% among 360,000; in the data active = activation above about 40%; inconclusive = about 15% to 40%; inactive = below about 15%; further: compound concentration not given in the record; the text of the record calls up to 30% inactive
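Agonist mode: compounds alone added to overnight-plated D2 PathHunter cells for 90 min at 37 C, with 57 uM final dopamine (EC100) defining full response. Beta-arrestin recruitment detected by chemiluminescent reagent, read after 1 h at ambient temperature.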
Six1-Eya2 blk – qHTS Assay for Inhibitors of the Six1/Eya2 Interaction | Homeobox protein SIX1 (Homo sapiens) + Protein phosphatase EYA2 (Homo sapiens), … | activity change, % (test concentration not listed) | AID 651725, 2012 | AlphaScreen GST-Six1/His-Eya2 binding, biochemical; active compounds read low; control for the full effect not named in the record | hit rate 0.56% among 360,000; in the data active = activity change below about -65%; inconclusive = about -30% to -65%; inactive = above about -30%; further: on the % scale 0 is the no-effect control and ±100 the full control effect
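AlphaScreen luminescence read after one hour at 37 °C in darkness. Pin-transferred compounds met GST-Six1 and His-Eya2 protein (5X stock 250 nM/500 nM) plus glutathione donor and Ni-chelate acceptor beads (5X, 50 ug/mL).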
Starred values were filed as active, the others as inactive; ! = repeats disagree; [ ] = remark or other dose. Some of the compounds tested; rates above refer to the full screens.

Results for CC(=O)NNC(=O)CN1C(=O)CN=C(c2ccccc2)c2cc(Br)ccc21 ?
PINK1 expr mod: 0.9%; TRPV1 PAM: 0.1; D2 potentiator: -0.7; CtBP-E1A inh: 14.1; Sfp inh: 10.8%; D2 ag: 0.9; Six1-Eya2 blk: -0.4

How did COC(=O)C1=C(c2cc3ccccc3o2)C[C@@H]2CC[C@H]1N2C(=O)NCCO do in these assays?
PINK1 expr mod: -1.8%; D2 potentiator: -6.8; CtBP-E1A inh: 1.0; D2 ag: -2.7; Six1-Eya2 blk: 0.3

How did C=CCN1C(=O)/C(=C/c2cccs2)C(=O)NC1=S do in these assays?
PINK1 expr mod: 0.1%; TRPV1 PAM: -2.8; D2 potentiator: -14.0; CtBP-E1A inh: 6.8; Sfp inh: 20µM*; D2 ag: -3.3; Six1-Eya2 blk: 12.4

What do the screens show for `O=C(O)C1C2CCC(O2)C1C(=O)Nc1cccc(Br)c1` (configuration not stated)?
PINK1 expr mod: 1.5%; TRPV1 PAM: -18.9; D2 potentiator: 10.7; Sfp inh: 11.6%; D2 ag: 3.2; Six1-Eya2 blk: -2.6

What do the screens show for `COc1ccc(CCn2c(O)c(C=NCc3ccc4c(c3)OCO4)c(=O)[nH]c2=O)cc1OC`?
TRPV1 PAM: -8.8; D2 potentiator: -5.7; CtBP-E1A inh: 8.5; Sfp inh: -8.8%; D2 ag: 0.4; Six1-Eya2 blk: 2.2

How did COc1ccc(C[C@@H]2c3cc(O)c(OC)cc3CCN2C)cc1O do in these assays?
PINK1 expr mod: 0.0%; TRPV1 PAM: 19.4; D2 potentiator: -26.4; CtBP-E1A inh: -20.9; Sfp inh: 13.2%; D2 ag: -1.2; Six1-Eya2 blk: 0.8

How did CCc1cccc(C)c1NC(=S)N1CC2CC(C1)c1cccc(=O)n1C2 (configuration not stated) do in these assays?
PINK1 expr mod: -2.1%; TRPV1 PAM: 1.4; D2 potentiator: -16.9; CtBP-E1A inh: 2.6; Sfp inh: 13.2%; D2 ag: -1.6; Six1-Eya2 blk: 6.7

Results for O=c1[nH]cc(COCC(F)(F)C(F)(F)C(F)(F)F)c(=O)[nH]1 ?
PINK1 expr mod: -1.3%; TRPV1 PAM: 1.5; D2 potentiator: -7.5; CtBP-E1A inh: 2.0; Sfp inh: 15.6%; D2 ag: -1.0; Six1-Eya2 blk: 0.1

How did COc1ccc(CNCCc2c(C)[nH]c3ccc(OC(F)(F)F)cc23)c(OC)c1 do in these assays?
PINK1 expr mod: 0.8%; TRPV1 PAM: 20.3; D2 potentiator: -9.3; CtBP-E1A inh: inconclusive; Sfp inh: inconclusive; D2 ag: -2.0; Six1-Eya2 blk: -12.3

Results for CCN(CC)CCNCc1nc2ccccc2c(=O)n1-c1ccc(F)cc1 ?
PINK1 expr mod: 0.9%; TRPV1 PAM: -1.4; D2 potentiator: -6.6; CtBP-E1A inh: 8.5; Sfp inh: -2.9%; D2 ag: -6.1; Six1-Eya2 blk: 0.7

Results for C=CCn1c(O)c(C=Nc2ccc(F)cc2)c(=O)[nH]c1=O ?
PINK1 expr mod: 1.2%; TRPV1 PAM: 1.4; D2 potentiator: -4.1; CtBP-E1A inh: -5.3; Sfp inh: 12.3%; D2 ag: 6.7; Six1-Eya2 blk: 1.2

How did NCCc1ccccc1 do in these assays?
PINK1 expr mod: 1.0%; D2 potentiator: -7.8; CtBP-E1A inh: 5.6; Sfp inh: 30.7%; D2 ag: -2.4; Six1-Eya2 blk: 0.7

Results for C[N+]1(C)[C@@H]2CC[C@H]1CC(OC(=O)[C@@H](CO)c1ccccc1)C2 (some centres not stated) ?
PINK1 expr mod: 1.5%; TRPV1 PAM: 1.0; D2 potentiator: -0.6; Sfp inh: 39.8µM*!; D2 ag: -1.3; Six1-Eya2 blk: -0.9

What do the screens show for `O=[N+]([O-])c1cc2c(cc1CNCCc1ccc3c(c1)OCO3)OCO2`?
PINK1 expr mod: 0.8%; TRPV1 PAM: -10.5; D2 potentiator: 8.2; CtBP-E1A inh: -13.9; Sfp inh: 50.1µM*; D2 ag: -4.0; Six1-Eya2 blk: -1.0

What do the screens show for `C1=C(CCNCc2ccccc2)CCCC1`?
PINK1 expr mod: 4.6%[38.3 µM]; TRPV1 PAM: 3.2; D2 potentiator: -8.5; CtBP-E1A inh: 2.6; Sfp inh: 1.1%; D2 ag: -3.4; Six1-Eya2 blk: 2.6

What do the screens show for `CCN(CC)c1ccc(CNCCc2ccccc2F)cc1`?
PINK1 expr mod: 7.0%; TRPV1 PAM: -10.4; D2 potentiator: -14.4; CtBP-E1A inh: -29.9; Sfp inh: 0.4%; D2 ag: -3.1; Six1-Eya2 blk: inconclusive

Results for O=C1NC(=O)N(Cc2ccc(F)cc2)C(=O)/C1=C\c1ccc(N2CCCC2)cc1 ?
PINK1 expr mod: 2.3%; TRPV1 PAM: 24.6; D2 potentiator: -11.8; CtBP-E1A inh: -20.7; Sfp inh: inconclusive; D2 ag: -5.2; Six1-Eya2 blk: -26.5

What do the screens show for `CCc1nc(N2CCNCC2)c(C#N)c2c1CSC(C)(C)C2`?
PINK1 expr mod: -1.0%; TRPV1 PAM: 1.8; D2 potentiator: -38.3; CtBP-E1A inh: -2.2; Sfp inh: 4.3%; D2 ag: -3.1; Six1-Eya2 blk: -6.6

Results for CC(=NCCN1CCCCC1)c1c(O)n(-c2ccc(Cl)cc2)c(=O)[nH]c1=O ?
PINK1 expr mod: 2.6%[38.3 µM]; TRPV1 PAM: 7.6; D2 potentiator: 0.9; CtBP-E1A inh: 7.3; Sfp inh: -7.0%; D2 ag: -0.3; Six1-Eya2 blk: 3.7

Results for O=C(C(=O)N1CCOCC1)c1cn(Cc2c(F)cccc2Cl)c2ccccc12 ?
PINK1 expr mod: 10.2%; TRPV1 PAM: 4.1; D2 potentiator: -12.3; CtBP-E1A inh: -0.1; Sfp inh: -5.2%; D2 ag: 2.6; Six1-Eya2 blk: 6.7

Results for CCN(CC)CCN=C(C)c1c(O)n(-c2ccccc2OC)c(=O)[nH]c1=O ?
PINK1 expr mod: 0.0%; TRPV1 PAM: 8.1; D2 potentiator: -23.0; CtBP-E1A inh: -0.6; Sfp inh: 6.8%; D2 ag: -1.5; Six1-Eya2 blk: 4.5

How did CC1=C(C(=O)O)N2C(=O)C(NC(=O)Cc3ccccc3)C2SC1 (configuration not stated) do in these assays?
PINK1 expr mod: 0.2%; TRPV1 PAM: 6.9; D2 potentiator: -2.8; CtBP-E1A inh: 4.8; Sfp inh: 10µM*; D2 ag: -0.4; Six1-Eya2 blk: -0.5

How did CCOC(=O)C1=C(C)c2ccccc2OC1(C(=O)OCC)c1ccccc1 (configuration not stated) do in these assays?
PINK1 expr mod: -0.9%; CtBP-E1A inh: -20.5; Sfp inh: 10.0%; D2 ag: -1.3; Six1-Eya2 blk: 3.8

How did COc1cccc(-n2c(CN3CCOCC3)nc3ccc([N+](=O)[O-])cc3c2=O)c1 do in these assays?
PINK1 expr mod: 0.5%; TRPV1 PAM: -12.4; D2 potentiator: -8.8; CtBP-E1A inh: 1.7; Sfp inh: inconclusive; D2 ag: -4.0; Six1-Eya2 blk: -0.8

How did COc1ccc(C(=O)CC(c2ccc3c(c2)OCO3)c2c(O)c3ccccc3oc2=O)cc1OC (configuration not stated) do in these assays?
PINK1 expr mod: -0.3%; D2 potentiator: -9.3; CtBP-E1A inh: -4.9; D2 ag: -5.1; Six1-Eya2 blk: -13.3

What do the screens show for `Clc1ccc(C[n+]2c(-c3ccccc3)cc(-c3ccccc3)cc2-c2ccccc2)cc1`?
PINK1 expr mod: -0.3%; TRPV1 PAM: 10.0; D2 potentiator: -53.1; CtBP-E1A inh: -0.3; D2 ag: 5.9; Six1-Eya2 blk: -7.0

How did Cc1cccn2c(=O)c3c(nc12)N1CCC(Cc2ccccc2)CC1C1(C3)C(=O)N(C)C(=O)N(C)C1=O (configuration not stated) do in these assays?
PINK1 expr mod: -1.8%; TRPV1 PAM: -1.0; D2 potentiator: -10.1; CtBP-E1A inh: 3.1; Sfp inh: 31.6µM*; D2 ag: -1.4; Six1-Eya2 blk: -0.1

What do the screens show for `c1ccc2c(CN3CCCCC3)c[nH]c2c1`?
PINK1 expr mod: -1.2%; D2 potentiator: -13.8; CtBP-E1A inh: 2.7; Sfp inh: 4.0%; D2 ag: -2.9; Six1-Eya2 blk: 5.1

How did COC1=CCC2([N+](=O)[O-])CN(C)CC1([N+](=O)[O-])C2 (configuration not stated) do in these assays?
PINK1 expr mod: 1.3%; TRPV1 PAM: 6.8; D2 potentiator: -1.8; CtBP-E1A inh: 3.1; Sfp inh: 10.7%; D2 ag: -1.0; Six1-Eya2 blk: 4.2

How did Cc1ccccc1-c1nc(CS(=O)CC(=O)N2CCC3(CC2)OCCO3)c(C)o1 (configuration not stated) do in these assays?
PINK1 expr mod: 8.7%[38.3 µM]; TRPV1 PAM: 9.4; D2 potentiator: -24.9; CtBP-E1A inh: 4.4; Sfp inh: -8.6%; D2 ag: -3.1; Six1-Eya2 blk: 4.4

What do the screens show for `COc1ccc(N=C(C)c2c(O)n(C)c(=O)n(C)c2=O)c(OC)c1`?
PINK1 expr mod: 1.1%; TRPV1 PAM: 4.9; D2 potentiator: -34.5; CtBP-E1A inh: 0.1; Sfp inh: -5.2%; D2 ag: -3.0; Six1-Eya2 blk: -3.0

Results for CCN1CCN(Cc2nc3ccc([N+](=O)[O-])cc3c(=O)n2-c2ccccc2F)CC1 ?
PINK1 expr mod: 1.5%; TRPV1 PAM: -1.4; D2 potentiator: -10.7; CtBP-E1A inh: 3.9; Sfp inh: -12.5%; D2 ag: 3.6; Six1-Eya2 blk: -0.3

What do the screens show for `Cc1cccc(C)c1-n1nnnc1C(c1ccccc1OC(F)(F)F)N1CCC(n2c(=O)[nH]c3ccccc32)CC1` (configuration not stated)?
PINK1 expr mod: 2.0%; D2 potentiator: -2.0; CtBP-E1A inh: 4.0; D2 ag: -2.2; Six1-Eya2 blk: 3.6
